Source: PubChem (National Center for Advancing Translational Sciences (NCATS))
nsP2pro inh = CHIKV nsP2 protease inhibition, primary qHTS; Q8JUX6; FRET peptide cleavage, nsP2pro, fluorescence 1 h; Potency, µM (doses to about 24.9 µM), without a hit: top-dose activity change, negative = inhibition, hits mostly inhibitors; hit rate 1.1% among 31,000; AID 1964107; active means well fitted inhibition curve with a large enough effect; inconclusive means small, poorly fitted or top-dose-only effect; inactive means no such curve, though single readings can be large or run the other way; further: nearly all actives have a fitted effect of over 60% in size; a reference inhibitor and vehicle were the controls
Target sequence (Q8JUX6 whole entry, looked up): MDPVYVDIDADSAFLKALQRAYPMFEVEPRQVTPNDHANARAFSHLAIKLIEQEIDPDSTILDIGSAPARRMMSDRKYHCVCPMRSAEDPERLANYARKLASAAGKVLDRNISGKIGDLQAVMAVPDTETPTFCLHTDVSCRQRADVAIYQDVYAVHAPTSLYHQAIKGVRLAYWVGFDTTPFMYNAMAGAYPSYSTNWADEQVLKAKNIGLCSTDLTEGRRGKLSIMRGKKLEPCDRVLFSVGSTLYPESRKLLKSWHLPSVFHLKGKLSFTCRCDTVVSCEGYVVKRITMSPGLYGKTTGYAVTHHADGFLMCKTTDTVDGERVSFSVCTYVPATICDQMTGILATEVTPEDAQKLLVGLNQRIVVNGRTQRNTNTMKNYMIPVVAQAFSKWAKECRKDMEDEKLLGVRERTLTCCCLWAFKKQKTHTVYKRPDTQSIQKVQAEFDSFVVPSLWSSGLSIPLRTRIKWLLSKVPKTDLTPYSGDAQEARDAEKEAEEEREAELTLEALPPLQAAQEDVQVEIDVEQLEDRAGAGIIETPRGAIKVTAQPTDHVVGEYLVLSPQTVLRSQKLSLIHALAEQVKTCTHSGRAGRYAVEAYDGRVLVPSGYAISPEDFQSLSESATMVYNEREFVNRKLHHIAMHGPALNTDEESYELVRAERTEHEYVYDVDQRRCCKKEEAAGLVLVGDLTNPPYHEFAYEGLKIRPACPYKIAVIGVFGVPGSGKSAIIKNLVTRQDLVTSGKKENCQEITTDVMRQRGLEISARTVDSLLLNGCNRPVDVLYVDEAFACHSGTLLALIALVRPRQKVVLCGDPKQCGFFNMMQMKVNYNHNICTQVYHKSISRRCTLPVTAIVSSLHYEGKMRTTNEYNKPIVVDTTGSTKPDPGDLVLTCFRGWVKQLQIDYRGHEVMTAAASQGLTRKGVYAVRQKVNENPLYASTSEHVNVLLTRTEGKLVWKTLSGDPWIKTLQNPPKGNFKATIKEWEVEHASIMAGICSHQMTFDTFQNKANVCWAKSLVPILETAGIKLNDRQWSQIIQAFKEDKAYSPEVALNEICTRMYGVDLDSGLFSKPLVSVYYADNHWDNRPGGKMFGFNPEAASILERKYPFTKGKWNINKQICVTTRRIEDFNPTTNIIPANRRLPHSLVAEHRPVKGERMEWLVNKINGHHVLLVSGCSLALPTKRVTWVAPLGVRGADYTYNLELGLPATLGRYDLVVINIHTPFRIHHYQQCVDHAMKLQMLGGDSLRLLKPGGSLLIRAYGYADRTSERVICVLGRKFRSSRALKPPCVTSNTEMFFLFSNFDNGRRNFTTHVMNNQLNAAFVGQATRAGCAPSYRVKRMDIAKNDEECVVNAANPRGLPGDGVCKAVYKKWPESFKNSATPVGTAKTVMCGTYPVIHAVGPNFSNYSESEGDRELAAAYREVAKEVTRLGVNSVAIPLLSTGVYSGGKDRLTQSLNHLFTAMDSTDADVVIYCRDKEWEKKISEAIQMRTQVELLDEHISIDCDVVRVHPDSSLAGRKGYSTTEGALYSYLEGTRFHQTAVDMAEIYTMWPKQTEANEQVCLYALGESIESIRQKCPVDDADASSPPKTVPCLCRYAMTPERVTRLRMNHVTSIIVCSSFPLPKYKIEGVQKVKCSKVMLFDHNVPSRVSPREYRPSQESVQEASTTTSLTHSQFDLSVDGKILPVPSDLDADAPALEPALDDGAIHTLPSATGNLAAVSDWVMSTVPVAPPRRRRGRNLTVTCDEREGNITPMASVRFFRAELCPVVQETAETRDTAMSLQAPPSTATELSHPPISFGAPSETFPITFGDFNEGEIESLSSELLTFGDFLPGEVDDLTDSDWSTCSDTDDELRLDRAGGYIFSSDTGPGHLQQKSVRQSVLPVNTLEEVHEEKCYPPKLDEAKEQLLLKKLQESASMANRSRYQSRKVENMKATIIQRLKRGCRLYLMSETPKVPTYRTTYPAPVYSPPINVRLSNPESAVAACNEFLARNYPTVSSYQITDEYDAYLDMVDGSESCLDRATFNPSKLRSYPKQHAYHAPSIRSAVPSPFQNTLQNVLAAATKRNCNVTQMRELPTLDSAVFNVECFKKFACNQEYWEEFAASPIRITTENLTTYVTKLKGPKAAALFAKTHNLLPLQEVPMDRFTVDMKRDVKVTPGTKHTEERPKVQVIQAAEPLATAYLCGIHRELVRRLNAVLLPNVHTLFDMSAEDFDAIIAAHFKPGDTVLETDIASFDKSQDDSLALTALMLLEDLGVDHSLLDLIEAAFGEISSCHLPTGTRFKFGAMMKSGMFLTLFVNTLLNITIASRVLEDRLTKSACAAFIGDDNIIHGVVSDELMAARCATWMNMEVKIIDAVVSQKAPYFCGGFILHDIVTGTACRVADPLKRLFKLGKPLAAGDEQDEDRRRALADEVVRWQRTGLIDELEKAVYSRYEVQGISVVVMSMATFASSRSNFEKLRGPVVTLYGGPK
Starred values were filed as active, the others as inactive; i = inactive; ? = inconclusive; & = joins results of further samples; [ ] = remark or other dose. On the % scale 0 is the no-effect control and ±100 the full control effect; potency means the concentration at half of the fitted maximal effect. Not all compounds are listed, so the mix of outcomes need not match the whole.

SMILES | nsP2pro inh
CCn1cc(-c2ccc(Cl)cc2)cc1C(=O)O | -3%
CC(=O)N[C@@H]1CN(S(=O)(=O)N2CCOCC2)C[C@H]1c1ccc(C)o1 | -20%
CCC1CN(C(=O)N2CCC(C(=O)N3CCN(c4ccc(F)cc4)CC3)CC2)c2ccccc2O1 (configuration not stated) | -4%
COc1ccc(-c2csc(NC(=O)c3ccncc3NS(=O)(=O)c3ccc(C)cc3)n2)cc1 | i
O=C(CSc1nc2c(c(=O)n1-c1ccccc1)SCC2)Nc1ccc(-c2ccccc2)cn1 | 22%
COC(=O)[C@]1(C)CCC[C@@]2(C)[C@@H]3CC[C@@H]4C[C@@]3(CC[C@@H]21)C[C@H]4C(=O)O | ?
C=CCNC(=O)C(NC(=O)c1ccc(OC)cc1)C1CCN(C(=O)CCc2ccccc2)CC1 (configuration not stated) | 1%
CCCc1nc(C(=O)N2CC[C@H](CO)[C@H](O)C2)cs1 | -2%
COC1C(O)C(C)OC(OC2C(CO)O[C@@H](O[C@@H]3CC4CCC5C(CC[C@]6(C)[C@@H](C7=CC(=O)OC7)CC[C@]56O)[C@@]4(C)[C@H](OC(C)=O)C3)C(O)C2O)C1O (some centres not stated) | 2%[10 µM]
COc1ccc(C(CNC(=O)c2oc3cc(Br)ccc3c2C)N2CCCCC2)cc1 (configuration not stated) | 3%
CCC(C)(Oc1ccc(C2(c3ccc(OC(C)(CC)C(=O)O)cc3)CCCCC2)cc1)C(=O)O (configuration not stated) | -11%&-5%
Cc1ccccc1C(=O)Nc1ccc(C(=O)N2CCCC(N(C)C)c3ccccc32)cc1 (configuration not stated) | 1%
Cc1ccc(-n2ncc3c(N4CCCCCC4)ncnc32)cc1 | -18%
CC(=O)c1cccc(NC(=O)NC[C@H]2C[C@@H]3CCN2C[C@@H]3c2cc(-c3ccc(F)cc3)nc(C)n2)c1 | i
O=C(CSc1nnc(-c2cccc([S+](=O)([O-])N3CCCC3)c2)n1-c1ccccc1)Nc1cccc(F)c1 | 0%
O=C(CC1NCCNC1=O)Nc1ccc(F)c(Cl)c1 (configuration not stated) | -8%
O=C(OCc1cccc(C(F)(F)F)c1)c1ccc(-c2nnn(Cc3ccc(F)cc3)n2)cc1 | -14%
CC(NC(=O)Cn1c(=O)oc2cc(S(=O)(=O)N3CCCCCC3)ccc21)c1ccccc1 (configuration not stated) | -24%
Cc1ccc(OCCC2CCN(C(=O)Cn3cnc4c3c(=O)n(C)c(=O)n4C)C2)cc1 (configuration not stated) | i
CCSc1ccc2c(c1)N(CCCN1CCN(C)CC1)c1ccccc1S2 | 106%[activator]
CCOC(=O)c1[nH]c2c(c1C)C(=O)CCC2 | 0%
C(#Cc1cccs1)c1cccnc1 | -9%
Cc1ccc(OCCn2c(CCNC(=O)c3cc(F)cc(F)c3)nc3ccccc32)cc1 | -2%
Cn1c(C(=O)NCCc2ccccc2)cc2sc(Cl)cc21 | -15%
CCOc1ccccc1/C=C/c1onc(C)c1S(=O)(=O)N1CCC(C(=O)N(CC)CC)CC1 | -8%
Later entries
SMILES | nsP2pro inh
COc1ccc(C23CCC(=O)C=C2N(C)CC3)cc1OC (configuration not stated) | 7%
COCCc1noc(-c2ccc(Cn3nc(C)cc3C)cc2)n1 | -5%
CCCN(CCC)C(=O)c1nn(C)c2c1CSc1ccc(C)cc1-2 | ?
CCCOc1ccc(C2C(=O)N(C3CCCCC3)CC(=O)N2CCC2=CCCCC2)cc1OC (configuration not stated) | -6%
COc1cccc(CCC(=O)N2CC(F)(F)C[C@H]2c2nc(C)no2)c1 | -10%
Cc1cc(F)ccc1NC(=O)CN(C)S(=O)(=O)c1ccc(C(=O)N2CCOCC2)s1 | -14%
O=C([C@@H]1C[C@H](Oc2cccnc2)CN1S(=O)(=O)c1cccs1)N1CCCC1 | -1%
NCc1c[nH]c(=S)n1C1CCc2c(F)cc(F)cc2C1 (configuration not stated) | 35%[activator]
CC(C)(O)C1CC=C(C(=O)OC[C@H]2O[C@@H](Oc3cc(C(=O)O)cc(O)c3O)[C@H](O)[C@@H](O)[C@@H]2O)CC1 (some centres not stated) | 67%[activator][10 µM]
Cc1ccc2c(c1)cc1c(=O)n(CC(=O)N3CCCCC3)nc(C)n12 | -23%
Cc1ccccc1CNC(=O)c1cc2cn(C(C)C)cc2s1 | -4%
O=C(O)Cc1cc(F)c(S(=O)(=O)N2CCN(S(=O)(=O)c3ccc4c(c3)OCCO4)CC2)cc1F | -6%
Cn1cc(-c2ccc(S(=O)(=O)n3ccc(/C=C/C(=O)Nc4ccccc4N)c3)cc2)cn1 | 1%&-8%
CCOc1ccc(N(CC(=O)NCc2ccc(Cl)cc2)S(=O)(=O)c2c(C)noc2C)cc1 | -16%
CC1(COCC2CC2)COc2ccc(C(=O)Nc3cccc([S+](C)(=O)[O-])c3)cc2N1 (configuration not stated) | 2%[39.2 µM]
Cc1ccccc1NS(=O)(=O)c1ccc2[nH]cc(C(=O)N3CCCC3)c(=O)c2c1 | -12%
CCOc1ccc(-c2cc(NC(=O)c3c(F)cccc3F)c(C(=O)O)s2)cc1 | 15%
Cc1ccc2oc3c(c(=O)c2c1)C1(C(=O)N(C)c2ccccc21)N(CCCO)C3=O (configuration not stated) | -14%
CCN1CCN(c2c(S(=O)(=O)c3ccccc3)cnc3ccc(Cl)cc23)CC1 | -3%
CCn1ccc2cc(S(=O)(=O)N3CCC(C(=O)NCCc4ccccc4Cl)CC3)ccc21 | -21%
O=C1C(N2CCN(S(=O)(=O)c3cc(F)ccc3F)CC2)CCN1Cc1cccnc1 (configuration not stated) | i
N#Cc1c(-c2cccs2)no[n+]1[O-] | -3%
COc1ccccc1NC(=O)C(Cc1ccccc1)NS(=O)(=O)c1ccc2c(c1)CCN2C(C)=O (configuration not stated) | -23%
CC(=O)c1ccc(O[C@@H]2O[C@H](CO[C@@H]3OC[C@@H](O)[C@H](O)[C@H]3O)[C@@H](O)[C@H](O)[C@H]2O)cc1 | 1%[10 µM]
COc1ccc(-c2ccccc2C(=O)N2CCCC2)nn1 | i
(next part)
SMILES | nsP2pro inh
COCCN1C(=O)CS(=O)C12CCN(S(=O)(=O)c1ccccc1)CC2 (configuration not stated) | 4%
COc1cccc(CN2CCOC[C@H](Oc3ccc(C(F)(F)F)cn3)C2)c1 | -2%[39.2 µM]
CCC(C)NC(=O)N1CCn2nnc(CCC(=O)N3CCOCC3)c2C1 (configuration not stated) | -18%
Nc1nc(Cl)nc2c1ncn2C1CC(O)C(CO)O1 (configuration not stated) | ?
CNC(=O)c1cc(C2CC2)nc2onc(C3CCN(C(=O)c4ccc(Cl)nc4)C3)c12 (configuration not stated) | i
Cc1cccc(-n2cnc3cc(C(=O)N4CCC(c5ccccc5)CC4)ccc32)c1 | -2%
CC(=O)N[C@@H]1CN(C(=O)CCc2c[nH]c3ccccc23)C[C@H]1CO | i
CN1CCC[C@@H]1Cc1c[nH]c2ccc(Nc3ncccc3[N+](=O)[O-])cc12 | 9%
COC[C@@H]1[C@H](C(=O)N2CCN(Cc3ccccc3)CC2)CCC(=O)N1C | -5%
O=C(CCn1cncn1)N1CCC2(CCC(=O)N(CCc3ccncc3)C2)CC1 | -7%
O=C(OCC1(COC(=O)c2cccnc2)CCCC(COC(=O)c2cccnc2)(COC(=O)c2cccnc2)C1O)c1cccnc1 | -5%
O=C(c1ccc(F)cc1F)N1CCC(c2nc(-c3ccc(S(=O)(=O)N4CCCC4)cc3)no2)CC1 | -4%
CCNC(=O)c1ccc(-c2ccc3ncnc(NCc4nc(C)cs4)c3c2)o1 | i
Cc1cnc(-c2ccccc2C(C)C)nc1NCc1ccc(-c2cccc(S(N)(=O)=O)c2)cc1 | i
Cc1ccccc1O | 0%[39.2 µM]
Cc1ccc(S(=O)(=O)N2CCN(c3nc(C#N)nc4ccccc34)CC2)cc1 | -6%
Cc1cccc(OCC(=O)Nc2ccc3c(c2)N(C)C(=O)c2ccccc2S3)c1 | -20%
O=C(Cc1ccccc1F)N1CCC(c2nc3c(nnn3Cc3cccc(Cl)c3)c(=O)[nH]2)CC1 | -10%
Oc1ccc(CNc2ccc(F)cc2Cl)c2cccnc12 | -13%
N#Cc1ccccc1-c1cc(-c2ccccn2)cn(-c2ccccc2)c1=O | -20%
O=C(NCc1ccnc2[nH]ccc12)c1cccc(Br)c1 | 11µM*
Cc1[nH]cnc1CN1CCc2c(c3ccccc3n2C)C1=O | -12%
CCn1c(=O)c2cc(C(=O)NCCCN3CCN(c4ccc(F)cc4)CC3)sc2c2ccccc21 | -5%
COc1cccc2c1cc1c(=O)n(CC(=O)NCc3ccco3)nc(C)n12 | -20%
COc1ccc(C)cc1-n1nnc(C(=O)Nc2cccc(SC)c2)c1C | -8%

Rewritten as tab-separated lines: entries from further up.
SMILES	nsP2pro inh
O=C(O)Cc1cc(F)c(S(=O)(=O)N2CCN(S(=O)(=O)c3ccc4c(c3)OCCO4)CC2)cc1F	-6%
CCN1CCN(c2c(S(=O)(=O)c3ccccc3)cnc3ccc(Cl)cc23)CC1	-3%

Further entries:
SMILES | nsP2pro inh
CCN(c1ccccc1)S(=O)(=O)c1ccc(-c2cc(C)no2)s1 | -17%
CC(=O)N1CCC(N[C@H]2C[C@@H](Cc3cc(CN(C)C)on3)C2(C)C)CC1 | i
Cc1ccc(C(=O)N(C)CC2CCOC2)cc1 (configuration not stated) | i
C/C=C(\C)C(=O)OC1C=C(C)CC(OC(=O)c2ccc(O)cc2)C2C1(C)CCC2(O)C(C)C (configuration not stated) | -1%[10 µM]
O=C(Nc1ccc(-c2nc3ccccc3[nH]2)cc1)Nc1ccc2c(c1)OCCO2 | -7%
CC(C)c1ccc(NS(=O)(=O)c2ccc3[nH]cc(C(=O)N4CCCC4)c(=O)c3c2)cc1 | -8%
Cc1cccc(OCC(=O)c2ccc3c(c2)N(C(C)C(=O)N2CCOCC2)C(=O)CO3)c1C (configuration not stated) | i
O=C(N1CCC(Cc2nc(-c3ccc(F)cc3)no2)CC1)C1(c2ccccc2)CC1 | 1%
N[C@@H](Cc1cc(I)c(Oc2ccc(O)c(I)c2)c(I)c1)C(=O)O | ?
CCC(=O)N1CCc2cc(Br)cc(S(=O)(=O)N3CCC(C(=O)Nc4cccc(C)c4)CC3)c21 | -20%
O=[S+]([O-])(c1ccc(OC(F)(F)F)cc1)N1CCN([S+](=O)([O-])c2ccc3c(c2)OCCO3)CC1 | i
Cc1nc(N2CCC(NC(=O)c3cccnc3)CC2)cc(C(F)(F)F)n1 | -2%
CCc1nc2c(sc3nc4c(cc32)COC(C)(C)C4)c(=O)n1Cc1ccco1 | ?
CC/C=C\C/C=C\C/C=C\CCCCCCCC(=O)OCC(O)COC1OC(CO)C(O)C(O)C1O (configuration not stated) | -10%[10 µM]
CCCCNc1ccc(C(=O)OCCN(CC)CC)cc1 | -8%
CNCCN1CCC(c2cc(CN(C)C(=O)c3cccc(Oc4ccccc4)c3)ccn2)CC1 | 49%[activator][10 µM]
O=C(CCOc1ccccc1)N(Cc1cccnc1)c1nc2ccc(Cl)cc2s1 | 1%
COC(=O)c1ccccc1NC(=O)Cn1c(CCC(=O)O)ccc1-c1ccc(C)cc1 | -3%
Cn1ccnc1C(=O)N1CCC(Cc2ccc(CCC(=O)N3CCCC3)cc2)CC1 | i
Cc1cc(-c2nnc3n2CCCCC3)c(C)n1-c1cccc(C(F)(F)F)c1 | -5%
COC(=O)c1cc(NC(=O)c2ccc3c(c2)NC(=O)c2ccccc2S3)cc(C(=O)OC)c1 | 2%
COCCN1CCC(C(=O)NO)(S(=O)(=O)c2ccc(Oc3ccc(OC(F)(F)F)cc3)cc2)CC1 | -9%
CC(=O)N[C@H]1C[C@@H](c2cc(C)c(C)cc2C)O[C@@H](C(C)(C)C)C1 | -2%
Cc1n[nH]c(C)c1C(N)C(=O)N(Cc1cccnc1)Cc1cccnc1 (configuration not stated) | i
CNc1ncc(C(=O)N2C[C@H]3COc4ccccc4C[C@@]3(C(=O)O)C2)cn1 | -3%

Exported field by field: four of the compounds above.
> COC1C(O)C(C)OC(OC2C(CO)O[C@@H](O[C@@H]3CC4CCC5C(CC[C@]6(C)[C@@H](C7=CC(=O)OC7)CC[C@]56O)[C@@]4(C)[C@H](OC(C)=O)C3)C(O)C2O)C1O (some centres not stated)
  nsP2pro inh = 2%[10 µM]
> COc1ccc(C(CNC(=O)c2oc3cc(Br)ccc3c2C)N2CCCCC2)cc1 (configuration not stated)
  nsP2pro inh = 3%
> CCC(C)(Oc1ccc(C2(c3ccc(OC(C)(CC)C(=O)O)cc3)CCCCC2)cc1)C(=O)O (configuration not stated)
  nsP2pro inh = -11%&-5%
> Cc1ccccc1C(=O)Nc1ccc(C(=O)N2CCCC(N(C)C)c3ccccc32)cc1 (configuration not stated)
  nsP2pro inh = 1%

Returning to the listing, starting 4 compounds before the break.
SMILES | nsP2pro inh
COCCN1CCC(C(=O)NO)(S(=O)(=O)c2ccc(Oc3ccc(OC(F)(F)F)cc3)cc2)CC1 | -9%
CC(=O)N[C@H]1C[C@@H](c2cc(C)c(C)cc2C)O[C@@H](C(C)(C)C)C1 | -2%
Cc1n[nH]c(C)c1C(N)C(=O)N(Cc1cccnc1)Cc1cccnc1 (configuration not stated) | i
CNc1ncc(C(=O)N2C[C@H]3COc4ccccc4C[C@@]3(C(=O)O)C2)cn1 | -3%
Cn1c(CNC(=O)CC2CCOC3(CCN(S(C)(=O)=O)CC3)C2)nc2ccccc21 (configuration not stated) | 3%
CC1(CO)CC[C@]2(C(=O)O[C@@H]3O[C@H](CO)[C@@H](O)[C@H](O)[C@H]3O)CC[C@]3(C)C(=CCC4[C@@]5(C)CC[C@H](O[C@@H]6O[C@H](C(=O)O)[C@@H](O)[C@H](O)[C@H]6O)C(C)(C)C5CC[C@]43C)C2C1 (some centres not stated) | 4%[5.1 µM]
COCCn1c(=O)c2c(n1Cc1ccccc1)CN(C(=O)c1cc3ccccc3[nH]1)CC2 | i
COc1ccc2c(c1)c(CC(=O)Nc1cc(C)c(OC)c(C)c1)c(C)n2C(=O)c1ccc(Cl)cc1 | -26%
COCCNc1nc(C)nc2c1nc(-c1ccccc1)n2CCCN1CCCCC1C (configuration not stated) | -2%
CC(CN(C)C)C(C)(O)Cc1ccc(Cl)cc1 (configuration not stated) | 2%
